High-throughput results as filed in PubChem.
Calb FLC – C. albicans growth modulation with fluconazole; 300,000 tested, 0.57% active; growth inhibition, % (concentration not given with the values); C. albicans CaCi-2 (fluconazole-resistant clinical isolate) + fluconazole, Alamar Blue growth, 48 h;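 active = most replicates above 75%; inconclusive = exactly half above 75%; inactive = most below 75%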;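 also: all wells also contain fluconazole at 8 µg/ml as a sub-toxic cotreatment; 0% = median of DMSO wells and 100% = median of geldanamycin control wells; wells of about 8 µL received 7.5 nL stock; the first replicate is given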
ALR inh – inhibitors of human sulfhydryl oxidase ALR | AID 485317 | P55789 | purified ALR, DTT oxidation, H2O2 HRP-luminol luminescence | 290,000 tested, 3.8% active | inhibition, % (concentration not given with the values);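 active = mean and each replicate at 75% or more; inconclusive = only one of the two met; inactive = neither met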;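 also: stock transfer was 7.5 nL into about 7.5 µL; 0% = neutral wells and 100% = wells with inactivated enzyme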
Target sequence (P55789 whole entry, looked up): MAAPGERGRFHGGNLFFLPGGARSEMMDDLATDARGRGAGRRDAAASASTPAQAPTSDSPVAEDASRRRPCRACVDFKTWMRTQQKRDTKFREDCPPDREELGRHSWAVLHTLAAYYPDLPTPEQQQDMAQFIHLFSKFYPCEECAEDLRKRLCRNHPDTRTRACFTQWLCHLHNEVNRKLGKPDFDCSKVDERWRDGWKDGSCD
A1 inh – inhibitors of the anti-apoptotic protein A1, read as caspase activation | 330,000 tested, 0.066% active | MEF A1-2A-BIM cells, Caspase-Glo 3/7 luminescence, 3 h; percent of clofoctol response, vehicle zero | caspase activation, % (test concentration not listed);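 active = over half of replicate activation scores above 10%, or exactly half above 10 with the replicate mean above 10; inconclusive = replicate mean below 10 yet half the replicates above 10; inactive = over half of replicates below 10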;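 also: wells of about 30 µL received 50 nL stock; many hits fall short of the cut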
B2AR ag – activates human beta-2 adrenergic receptor causing internalization; P07550; Am2.2-beta2AR cells, FAP receptor internalization, flow cytometry; reference of the scale not given here; response, % (test concentration not listed); 340,000 tested, 0.43% active; AID 504454;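 active = response above a set limit, near 3 SD of response in nonfluorescent compounds, cut at about 42% in these data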;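 also: stock transfer was 100 nL into about 11 µL; a reference agonist was the positive control; negative values mostly stem from fluorescent compounds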
Target sequence (P07550 whole entry, looked up): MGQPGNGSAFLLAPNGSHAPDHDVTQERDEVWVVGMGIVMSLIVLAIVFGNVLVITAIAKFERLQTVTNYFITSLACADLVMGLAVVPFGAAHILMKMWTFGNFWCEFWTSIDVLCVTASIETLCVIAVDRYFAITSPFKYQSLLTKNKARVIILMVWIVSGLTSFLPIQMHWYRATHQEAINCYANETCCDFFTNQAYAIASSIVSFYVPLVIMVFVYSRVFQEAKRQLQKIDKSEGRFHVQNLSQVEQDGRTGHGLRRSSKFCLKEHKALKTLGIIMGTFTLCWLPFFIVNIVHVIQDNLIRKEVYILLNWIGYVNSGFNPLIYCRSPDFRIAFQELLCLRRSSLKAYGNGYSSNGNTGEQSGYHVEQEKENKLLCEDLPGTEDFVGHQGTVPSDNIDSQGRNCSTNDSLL
Ecoli rRNA inh – selective bacterial rRNA inhibition in E. coli; E. coli WT GFP vs humanized-ribosome RFP mutants, fluorescence, 24 h; hits give low values; DMSO median 0, no signal -100; GFP signal change (wild-type ribosome), % (concentration not given with the values); 350,000 tested, 1.6% active; AID 720706;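 active = significant combined selectivity score with lowered wild-type GFP, culture density cut under 30%, mutant RFP and density less affected; inactive = any of these conditions unmet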; also: one replicate is shown; some compounds called inactive have numbers as strong as hits
Beta cell apopt – beta cell apoptosis inhibition; protection from apoptosis, % (no concentration beside the values); 300,000 tested, 0.8% active; INS-1E cytokine-induced death, ATP luminescence, 48 h; percent of positive-control rescue, neutral wells zero;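 active = all replicates at 75% or more, or half of them and the mean; inconclusive = half reach 75% but not the mean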;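 also: 0% = cytokine-treated negative control wells and 100% = positive control rescue; higher means more ATP so stronger rescue from cytokine killing; wells of about 40 µL received 100 nL stock; the first replicate is given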
T cruzi repl – blocks replication of Trypanosoma cruzi | T. cruzi beta-gal in NIH3T3, luminescence, 90 h | inhibition, % (no concentration beside the values) | 300,000 tested, 1.4% active;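 active = mean inhibition across valid replicates above about 55%, limit read from the data; inconclusive = mean below that limit but half or more replicates reach it; inactive = mean below it, under half of replicates reach it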;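 also: signal also drops with host cell toxicity which is not excluded here; 0% = plate median of DMSO wells and 100% = zero luminescence signal; higher percent means less beta-gal luminescence so fewer parasites; stock transfer was 50 nL into about 50 µL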
LANA-H2A inh – blocks KSHV LANA binding to histone H2A/H2B. Q9QR71. cell-free LANA-H2A/H2B peptide, fluorescence polarization. inhibition, % (no concentration beside the values). 320,000 tested, 0.6% active; in the data active = inhibition mostly above about 10%, no sharp cut-off; inactive = mostly below about 6.7%;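 also: stock transfer was 7.5 nL into about 10 µL; 0% = median of vehicle wells and 100% = median of positive control wells; one replicate is shown; the record names a cut of 25% in any replicate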
Ecoli rRNA inh OD600 – further read-out of Ecoli rRNA inh, marked with its call; OD600 change, %; measured here: OD600 growth;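 optical density of the mix in the first replicate; 0 = DMSO median and -100 = no signal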
Ecoli rRNA inh RFP – further read-out of Ecoli rRNA inh, marked with its call; RFP signal change, %; measured here: RFP humanized mutant strains;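 first replicate; 0 = DMSO median and -100 = no signal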
* hit, by the source's call; ? = inconclusive; . = no result given. Not all compounds are listed. The share of hits here may be higher or lower than overall.

Fields: Ecoli rRNA inh OD600	B2AR ag	ALR inh	A1 inh	Ecoli rRNA inh RFP	Beta cell apopt	T cruzi repl	LANA-H2A inh	Ecoli rRNA inh	Calb FLC
- Cc1ccc(OCC(=O)Nc2ccc(C)c(S(=O)(=O)N3CCCCC3)c2)c([N+](=O)[O-])n1
    .	-14	-3	-0.3	.	-4	-2	4.5	.	-12
- CCCCN(CC)CCNC(=O)c1cc2cc3ccc(Cl)cc3nc2o1
    -4	-4	2	0.2	-1.3	-5	33	-4.8	-5	4
- O=C(Oc1ccccc1)c1ccc2c(c1)C(=O)N(Cc1ccncc1)C2=O
    5	5	.	1.1	-2.3	-8	0	-5.8	4	0
- CCOc1cccc(C(=O)NC2CCCCC2)c1
    -6	0	-2	0.4	1.0	1	-6	3.0	1	7
- CN(C)C=Nc1nonc1-c1ccccc1
    -9	2	8	-1.3	-1.2	-1	-3	-0.8	1	-8
- COc1ccc(C(=O)C2CCCN(C(=O)CCNC(C)=O)C2)cc1OC (configuration not stated)
    10	9	-6	0.8	2.4	1	0	-1.5	16	8
- Cc1ccc(S(=O)(=O)N2CCOCC2)cc1C(=O)NCc1cccnc1
    4	0	-5	1.1	-3.1	-2	-19	3.5	9	-2
- Cc1ccsc1C(=O)N(C)CC(=O)N(CC(C)C)c1c(N)n(CC(C)C)c(=O)[nH]c1=O
    14	1	.	0.4	-2.9	1	1	.	7	0
- CN1CCN(CCC(=O)N/N=C/C=C2\N(C)c3ccccc3C2(C)C)CC1
    -2	2	99*	0.6	60	11	10	-4.5	12	-3
- CCCNS(=O)(=O)c1cccc(C(=O)NNC(=O)c2cc(C)oc2C)c1
    6	-2	16	-0.5	-1.4	-4	-7	0.0	5	0
- CCOC(=O)Cn1c(O)c(N=NC(=O)OC)c2ccccc21
    1	-7	-3	0.9	1.2	5	3	-0.3	9	2
- CCOC(=O)c1cc(NC(=O)CN2CCCC2)cc(C(=O)OCC)c1
    8	3	-11	0.3	1.9	-6	7	-2.3	1	-7
- CCCCC1=CC2=CC(=O)C(C)(OC(=O)CC)C(=O)C2=CN1CCc1ccc(Br)cc1 (configuration not stated)
    -1	-4	-11	0.5	9.4	1	43	0.3	-6	10
- Cc1ccsc1S(=O)(=O)N1CCC(CO)(CC2CCCCO2)CC1 (configuration not stated)
    -3	-1	-3	1.3	2.0	-5	0	-0.9	3	-11
- NCCC(=O)N1c2ccccc2Sc2ccccc21
    5	-1	-3	0.9	-5.6	-4	6	1.0	8	-17
- CC(C)NC(=O)c1cnn2c1NC(c1cccs1)CC2C(F)(F)F (configuration not stated)
    .	-10	6	0.3	.	4	9	3.3	.	-2
- CCOC(=O)Cc1csc(SCC(=O)NC2CCS(=O)(=O)C2)n1 (configuration not stated)
    21	2	0	1.6	0.2	-3	.	0.8	4	.
- COc1ccc(S(=O)(=O)N2CCC3(CC2)CC(=O)c2ccccc2O3)cc1OC
    9	-2	7	1.3	-1.0	.	-1	0.9	5	11
- Cc1ccc(OCCCCN2CCc3ccccc3C2)c(C)c1
    -28	-6	0	0.0	1.2	0	21	0.0	-24	-4
- COCCn1c(N)c(N(Cc2ccccc2)C(=O)CSCC(=O)Nc2ccc(C)cc2)c(=O)[nH]c1=O
    11	22	1	2.3	3.1	0	2	-0.9	4	7
- CCC(=O)N/N=C(\C)CC(=O)Nc1cc(Cl)ccc1C
    1	2	53	0.1	-3.0	2	-5	1.4	0	-20
- COc1ccc(C2=NN(C(N)=S)C(c3ccco3)C2)cc1 (configuration not stated)
    5	5	-60	0.3	5.5	13	-15	3.3	-1	33
- CCC(=O)Nc1cccc(C2=NOC3(C2)C[C@@H](C(N)=O)N(C(=O)c2ccccc2C(=O)c2ccccc2)C3)c1 (some centres not stated)
    .	-10	-14	0.3	.	-6	2	1.8	.	-3
- COc1ccc2[nH]c(=O)c(CN(CC3CCCO3)C(=S)Nc3ccccc3)cc2c1 (configuration not stated)
    4	-1	-8	1.2	0.6	-2	16	-1.3	7	-7
- CCOC(=O)c1sc(N2N=C(C)C(N=Nc3cccc(C)c3)C2=O)nc1C (configuration not stated)
    11	12	1	-1.3	19	15	-3	-0.3	-1	-3
- Cc1ccc(C(C)NC(=O)CSc2ccc(S(=O)(=O)N3CCOCC3)cn2)cc1C (configuration not stated)
    10	5	.	0.2	1.8	-11	.	2.9	8	.
- Cc1nnc(SCC(=O)O)o1
    14	-4	-1	0.4	-0.7	.	8	-1.3	21	20
- CC(C)CC(=O)Nc1cccc(C(=O)Nc2ccccc2C(=O)O)c1
    .	-2	4	0.0	.	-6	-15	-2.2	.	53
- O=S(=O)(Nc1ccccn1)c1ccc(C2CCCCC2)cc1
    .	3	4	-0.3	.	-5	7	0.4	.	20
- Cn1nnnc1Sc1ncnc2scc(-c3ccc(-c4ccccc4)cc3)c12
    7	7	-3	-0.4	2.3	-4	.	-9.0	13	.
- Cc1onc(-c2ccccc2)c1C(=O)OCC(=O)NCc1ccc(F)cc1
    -7	-2	-2	-0.2	-0.8	-2	7	9.0	-2	-5
- COCCCNC(=O)c1cn(C)c(=O)c2cc(OC)c(OC)cc12
    .	23	.	1.0	.	0	1	0.9	.	?
- O=C(CSc1nnc(Cn2nnc3ccccc32)o1)Nc1ccc(Cl)cc1
    .	-1	-9	0.5	.	-2	-9	6.3	.	5
- C/C(=N\Nc1ccc2nncn2n1)c1ccccn1
    -36	2	-2	-0.1	-6.1	80*	63*	2.5	-41	2
- CCCn1cc2c(c1-c1cccc(C)c1)c(=O)n(C)c(=O)n2C
    .	4	0	0.6	.	-7	-3	0.1	.	-14
- CC(C)C1Cc2c(sc3[nH]c(=S)n(Cc4ccccc4)c(=O)c23)CO1 (configuration not stated)
    .	9	2	0.8	.	16	2	1.9	.	5
- C=CCNC(=O)CSc1nc2sc3c(c2c(=O)n1CCC)CCC3
    -3	-3	-12	3.1	-0.2	2	21	-4.9	-1	20
- CC1(C)SC(=S)N(c2ccccc2)C1/[N+]([O-])=C/c1cccc([N+](=O)[O-])c1 (configuration not stated)
    17	6	-4	-0.5	1.5	-6	5	-1.2	4	-18
- CCOC(=O)C1=C(C)NC(=S)N(C(C)=O)C1c1ccccc1 (configuration not stated)
    3	-4	4	0.9	3.0	2	1	6.5	0	31
- CCCCn1c(N)c(Sc2ccc(Cl)cc2)c(=O)[nH]c1=O
    -8.9*	2	-2	0.6	-1.9*	0	1	-1.4	-21*	12
- Cc1ccc(OCC(=O)Nc2ccc(F)cc2)c([N+](=O)[O-])n1
    -14	-11	-6	-0.4	-12	-4	-10	-1.7	-3	5
- CN(c1ccccc1C(=O)Nc1ccc2c(c1)OCCO2)S(C)(=O)=O
    .	3	-3	0.5	.	-4	-8	9.8	.	1
- Cc1cccc(C(=O)Nc2cc(OCc3cccc(F)c3)c(Cl)cc2Cl)c1
    6	3	.	1.1	-1.1	10	9	5.9	12	-2
- CCN(C(=O)CN1C(=O)NC(CCSC)C1=O)C1CCS(=O)(=O)C1 (configuration not stated)
    16	2	1	-0.3	-1.5	-3	.	1.5	8	.
- CC1(C)Oc2ccc3ccc(=O)oc3c2/C(=C/Nc2ccc(O)cc2)C1=O
    12	-4	20	0.4	2.6	-15	-70	-2.7	8	2
- O=C(NCCc1cccs1)C1CC1
    5	-2	-6	0.2	0.1	-4	-11	-5.2	4	-4
- COc1c(O)ccc(/C=C(\C#N)c2nc3ccccc3[nH]2)c1[N+](=O)[O-]
    -6	-18	87*	-5.1	10	1	-14	4.1	-21	0
- COc1ccc(CC(=O)N/N=C(\C)c2ccccn2)cc1
    .	-3	-8	0.4	.	59	-8	-4.1	.	-4
- CC(C)(C)n1nc2c(c1NC(=O)c1ccccc1C(F)(F)F)CS(=O)(=O)C2
    14	-2	0	-0.5	0.2	4	2	4.1	20	-7
- CC(=O)c1c(C)oc2c1cc(O)c1ccccc12
    -10	7	.	0.8	11	-2	-4	1.7	6	36
- COc1ccc(NS(=O)(=O)c2ccc(Cl)s2)cn1
    1	-2	0	0.6	1.2	-4	-17	4.7	-9	1
- O=C(COC(=O)CNS(=O)(=O)c1cccc(Br)c1)NC(=O)Nc1ccc2c(c1)OCCO2
    .	0	5	-0.6	.	-1	.	-6.9	.	.
- COc1ccc(Cn2c(C)nc3c(c(=O)c4ccccc4n3C)c2=O)cc1
    -5	0	-4	-0.9	-0.2	-5	0	2.5	16	6
- O=c1[nH]c2ccccc2n1C1=CCNCC1
    21	-2	.	.	-2.0	.	-13	.	5	7
- CSc1ccccc1NC(=O)CN(C)CC(=O)c1[nH]c(C)c(C(C)=O)c1C
    0	-3	.	-0.4	4.5	0	.	-5.1	-1	.
- CCOC(=O)C1CCN(C(=O)Cc2c(C(=O)O)n(C)c3ccccc23)CC1
    .	0	-17	0.1	.	-5	0	1.0	.	-1
- C=CCOC(=O)C1=C[C@H](c2ccccc2)[C@@H](CCCO)[C@H](OCC)O1
    -17	2	.	1.4	-4.2	-2	2	-5.6	-13	17
- Cc1ccc(C2C3C(=O)N(c4ccc(C)cc4)C(=O)C3N3CCCN23)cc1 (configuration not stated)
    5	9	31	0.3	3.0	0	-6	0.6	9	-10
- COc1ccc2[nH]c(=O)c(CN(Cc3nnnn3CCc3ccccc3)CC3CCCO3)cc2c1 (configuration not stated)
    .	-5	-10	0.1	.	1	14	-0.4	.	-8
- COc1cc(/C=C/c2cccc[n+]2C)ccc1OCC(=O)Nc1ccccc1C
    4	4	8	0.2	-1.5	0	-14	15	9	3

An excerpt of these results, with bars between the fields.
molecule | Ecoli rRNA inh OD600 | B2AR ag | ALR inh | A1 inh | Ecoli rRNA inh RFP | Beta cell apopt | T cruzi repl | LANA-H2A inh | Ecoli rRNA inh | Calb FLC
Cn1nnnc1Sc1ncnc2scc(-c3ccc(-c4ccccc4)cc3)c12 | 7 | 7 | -3 | -0.4 | 2.3 | -4 | . | -9.0 | 13 | .
Cc1onc(-c2ccccc2)c1C(=O)OCC(=O)NCc1ccc(F)cc1 | -7 | -2 | -2 | -0.2 | -0.8 | -2 | 7 | 9.0 | -2 | -5
COCCCNC(=O)c1cn(C)c(=O)c2cc(OC)c(OC)cc12 | . | 23 | . | 1.0 | . | 0 | 1 | 0.9 | . | ?
O=C(CSc1nnc(Cn2nnc3ccccc32)o1)Nc1ccc(Cl)cc1 | . | -1 | -9 | 0.5 | . | -2 | -9 | 6.3 | . | 5
C/C(=N\Nc1ccc2nncn2n1)c1ccccn1 | -36 | 2 | -2 | -0.1 | -6.1 | 80* | 63* | 2.5 | -41 | 2
CCCn1cc2c(c1-c1cccc(C)c1)c(=O)n(C)c(=O)n2C | . | 4 | 0 | 0.6 | . | -7 | -3 | 0.1 | . | -14
